Screens: PubChem, several laboratories
Mtb betalactam – beta-lactam sensitization of Mtb H37Rv | M. tuberculosis H37Rv growth with meropenem, percent inhibition; hits of this screen are not shown here | inhibition, % at 25 µM | 330,000 tested, 0.27% active | AID 434955;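 active means about 74% or more and at least 40 points above the plate without the antibiotic, then above 30% in a dose series; inconclusive means first-round hits that could not be retested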;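 further: growth measured after seven days incubation then overnight dye step; 0% = bacteria only wells and 100% = bacteria with antibiotic; twin plates without the antibiotic show which effects depend on it; some results filed as inactive read as strong as hits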
Arbovirus inh – antivirals against arbovirus infection | arbovirus infection cell-based antiviral screen | inhibition, % at 10 µM | 200,000 tested, 0.37% active;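 active means inhibition from about 30%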;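 further: bluetongue infection of BSR cells; cell survival read as ATP light after 72 h; 0% = infected wells without compound and 100% = uninfected wells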
RecA splice inh – Mtb RecA intein splicing inhibition. cell-free RecA intein splicing, fluorescence. AID 2221. 290,000 tested, 0.75% active. inhibition, %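 (about 9 µM by stock and volumes)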; in the data active means inhibition above about 30%; inconclusive means no clear call, values can overlap the other calls;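 further: 0% = vehicle wells and 100% = reference inhibitor control wells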
Target sequence (P9WHJ3 whole entry, looked up, canonical isoform): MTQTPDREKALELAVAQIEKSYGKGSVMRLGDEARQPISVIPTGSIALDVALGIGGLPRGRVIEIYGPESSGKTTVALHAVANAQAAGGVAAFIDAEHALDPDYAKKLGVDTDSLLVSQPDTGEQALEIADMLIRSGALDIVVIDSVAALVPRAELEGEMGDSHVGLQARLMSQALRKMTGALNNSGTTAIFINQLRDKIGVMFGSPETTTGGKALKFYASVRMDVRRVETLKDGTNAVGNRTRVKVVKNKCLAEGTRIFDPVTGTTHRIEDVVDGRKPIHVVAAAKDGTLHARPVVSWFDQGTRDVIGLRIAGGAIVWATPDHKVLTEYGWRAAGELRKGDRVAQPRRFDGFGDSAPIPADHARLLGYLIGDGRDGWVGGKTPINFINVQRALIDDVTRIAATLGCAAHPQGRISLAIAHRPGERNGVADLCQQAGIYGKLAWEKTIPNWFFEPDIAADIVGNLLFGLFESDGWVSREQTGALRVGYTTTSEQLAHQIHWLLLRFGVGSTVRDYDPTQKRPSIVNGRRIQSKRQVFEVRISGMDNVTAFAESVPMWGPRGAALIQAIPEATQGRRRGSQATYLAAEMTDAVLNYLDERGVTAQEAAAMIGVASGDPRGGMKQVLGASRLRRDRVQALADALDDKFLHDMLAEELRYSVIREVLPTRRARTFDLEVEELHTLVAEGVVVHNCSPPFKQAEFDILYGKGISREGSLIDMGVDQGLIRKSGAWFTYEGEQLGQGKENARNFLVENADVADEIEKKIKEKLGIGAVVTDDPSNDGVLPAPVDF
Mtb H37Rv – M. tuberculosis H37Rv growth inhibitors, H37Rv strain (AID 1626) | M. tuberculosis H37Rv growth inhibition; higher % means a stronger effect | inhibition, % at 10 µM; hits with a dose series show IC50 in µM | 220,000 tested, 0.95% active;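 active means confirmed in a dose series; inconclusive means inhibition above 80% but not taken into the dose series; inactive means below 80% or under 30% at every dose of the series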;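 further: bacteria incubated seven days before Alamar blue readout; 0% = bacteria only wells and 100% = bacteria with antibiotic wells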
YopH inh – YopH (Yersinia) phosphatase inhibition; fluorescence Ex485/Em525; inhibition, %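 (about 10 µM by stock and volumes)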; 140,000 tested, 0.16% active;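 active means inhibition of 50% or more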;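 further: controls were vehicle for no effect and minimum signal wells for full effect; inactives centre near -20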
Arbovirus inh repeat – recorded beside Arbovirus inh, whose call it bears; inhibition, %; measured here: 10K subset replicate screen; many hits read low in the repeat;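 first of two repeat runs on a subset; 0% = infected and 100% = uninfected wells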
* = called active by the depositor; u = inconclusive; x = no result given.

SMILES	Mtb betalactam	Arbovirus inh	RecA splice inh	Mtb H37Rv	YopH inh	others
O=C(CC(=O)N/N=C\c1ccc(F)cc1)NCCc1ccccc1	-2	-3	-0.9	-6%	x
O=C(CSc1nnc(-c2ccccc2)c(-c2ccccc2)n1)Nc1ncc(Cl)cc1Cl	6	4	2.2	6%	-8
CCCn1c(=O)c(C(=O)Nc2cccc(C)n2)c(O)c2ccccc21	3	x	-1.2	x	x
O=C(Cn1cc(Cl)ccc1=O)c1ccc(Cl)cc1	2	3	-0.4	-2%	3
CNC(=O)CCCCC(=O)N/N=C/c1ccc(Cl)cc1Cl	-12	x	-0.1	-6%	x
N/C(=N\c1nc2ccccc2o1)NC(=O)c1ccccc1	39	8	-1.8	x	5
CCOC(=O)c1c(C)[nH]c(C(=O)CSc2nnc(Nc3ccccc3F)s2)c1C	1	-19	-3.6	3%	-10
O=C(CS(=O)(=O)Cc1ccccc1)N1CCc2ccccc21	-1	-3	-0.6	-13%	-11
O=C(CCc1ccccc1)Nc1cccc([N+](=O)[O-])c1	-1	5	-3.5	1%	x
COc1ccccc1NC(=S)N/N=C/c1cccc(C)c1	-1	2	-2.6	3%	-26
COc1ccccc1CNC(=O)N1CCN(c2ccccc2)CC1	-2	x	1.2	x	x
COc1ccc(C(OC(=O)c2ccco2)C(=O)NC2CCCCC2)cc1OC (centres undefined)	5	7	-3.5	-10%	-21
Cc1cc(C)nc(NC(=O)c2cccs2)c1	1	x	2.8	x	x
COc1cc(C=O)ccc1OCCCOc1ccccc1[N+](=O)[O-]	-1	10	-0.4	-2%	-16
Cc1ccc(C(=O)Nn2c(N)c(S(=O)(=O)c3ccc(C)cc3)c3nc4ccccc4nc32)cc1	-5	-13	1.1	-7%	-4
O=C(O)CNS(=O)(=O)c1ccc2c(c1)CCCC2	-13	10	2.2	3%	x
COc1ccc2c(c1)C(C)(CCN)C(=O)N2C (centres undefined)	-4	x	-4.9	-7%	x
O=C(COc1cc(Cl)ccc1Cl)Nc1ccc2c(c1)CCC2	3	-6	-2.4	4%	-33
CN1CC=C2C(C#N)=C(N)C(C#N)(C#N)C(c3ccsc3)C2C1 (centres undefined)	8	-1	-57	2%	11
CCCc1nnc(SCC(=O)N2CCCCC2C)n1CC1CCCO1 (centres undefined)	-1	3	x	-15%	-34

Arranged by molecular weight (largest number first): part of the list above.
SMILES	Mtb betalactam	Arbovirus inh	RecA splice inh	Mtb H37Rv	YopH inh	others
O=C(CSc1nnc(-c2ccccc2)c(-c2ccccc2)n1)Nc1ncc(Cl)cc1Cl	6	4	2.2	6%	-8
CCCc1nnc(SCC(=O)N2CCCCC2C)n1CC1CCCO1 (centres undefined)	-1	3	x	-15%	-34
COc1ccc2c(c1)C(C)(CCN)C(=O)N2C (centres undefined)	-4	x	-4.9	-7%	x
Cc1cc(C)nc(NC(=O)c2cccs2)c1	1	x	2.8	x	x

Next part:
SMILES	Mtb betalactam	Arbovirus inh	RecA splice inh	Mtb H37Rv	YopH inh	others
CSCC(C)N1CCC(CO)(CCCc2ccccc2)CC1 (centres undefined)	-9	-18	1.8	-6%	x
CCOc1ccc(/C=C2/C(=O)N(c3ccc(OC)cc3)C(=S)N2CC(=O)OC)cc1OCC	-5	-6	0.2	-5%	33
COc1ccc(NC(=O)CSc2n[nH]c(N)n2)cc1OC	-3	-2	1.2	5%	x
Cc1ccc(S(=O)(=O)N(C)C)cc1NC(=S)NCCc1ccccn1	-8	0	-1.0	-1%	x
CCOc1ccc(CCNC(=O)CCc2nnc3ccc(N4CCOCC4)nn23)cc1	u	x	1.3	x	x
CCCNCC(O)COc1ccccc1C(=O)CCc1ccccc1 (centres undefined)	-6	26	-2.8	-2%	-27
Nc1ncnc2oc(-c3ccco3)c(-c3ccco3)c12	-3	2	0.1	1%	-33
CC(=O)N1CCC2(CC1)CC(=O)c1cc(OCC(=O)N3CCC4(CC3)OCCO4)ccc1O2	-3	2	-15	-5%	x
CC(=O)OC(Cn1ccnc1)c1ccccc1 (centres undefined)	-6	-1	-2.1	-6%	-30
COc1ccc(NC(=O)c2cc(S(=O)(=O)N(Cc3ccccc3)c3ccccc3)ccc2Cl)cn1	4	-3	1.3	4%	-28
CN1CCC(N(C)C(=O)Cc2ccccc2[N+](=O)[O-])CC1	13	2	-2.9	-5%	x
CC(OC(=O)c1oc2ccccc2c1COc1ccccc1)C(N)=O (centres undefined)	7	10	3.9	-1%	x
CNC(=O)CCCc1nc(-c2ccccc2Cl)no1	6	3	0.8	6%	-1
CC(/C=C/c1cccc([N+](=O)[O-])c1)=N/NC(=O)c1cccnc1	90	-11	-0.9	u	-28
O=C(NCc1ccc(F)cc1)C1CCCN(C(=O)NCc2ccccc2)C1 (centres undefined)	3	x	0.9	x	x
CC1SC(c2ccc(F)cc2)N(CCc2ccccc2)C1=O (centres undefined)	-1	x	7.0	x	x
CCOC(=O)C1(Cc2ccccc2)CCN(Cc2cccc3nccnc23)CC1	0	5	2.0	-1%	x
NC(=O)[C@@H]1CCCN1Cc1nc(Cc2ccccc2F)no1	-7	4	1.9	3%	x
Cc1ccc(OCC(O)CN2CCOCC2)c(C)c1 (centres undefined)	6	x	2.5	x	x
C=CC#CC1(O)CC(C)[N+](C)(C)CC1C (centres undefined)	-5	8	-0.9	-5%	x

Next part; the last 6 above are carried over.
SMILES	Mtb betalactam	Arbovirus inh	RecA splice inh	Mtb H37Rv	YopH inh	others
O=C(NCc1ccc(F)cc1)C1CCCN(C(=O)NCc2ccccc2)C1 (centres undefined)	3	x	0.9	x	x
CC1SC(c2ccc(F)cc2)N(CCc2ccccc2)C1=O (centres undefined)	-1	x	7.0	x	x
CCOC(=O)C1(Cc2ccccc2)CCN(Cc2cccc3nccnc23)CC1	0	5	2.0	-1%	x
NC(=O)[C@@H]1CCCN1Cc1nc(Cc2ccccc2F)no1	-7	4	1.9	3%	x
Cc1ccc(OCC(O)CN2CCOCC2)c(C)c1 (centres undefined)	6	x	2.5	x	x
C=CC#CC1(O)CC(C)[N+](C)(C)CC1C (centres undefined)	-5	8	-0.9	-5%	x
COC(=O)Nc1sc2c(c1C(N)=O)CCC(C)C2 (centres undefined)	22	9	0.0	-2%	x
COC(=O)c1ccc2c(=O)n(-c3ccccc3)c(SCN3C(=O)c4ccccc4C3=O)nc2c1	-5	-3	2.6	5%	-20
Cc1ccc(SC[C@H](C)CN2CC[C@H](C(C)(C)C)CCC2=O)cc1	58	x	23	x	x
CCCCCCCN1C=CC(=O)CC1	-2	x	2.2	1%	x
Cc1ccc(NCCC(=O)c2ccc(Cl)cc2)cc1	100	4	0.3	51%	-4
CO/N=C(/C)CCS(=O)(=O)c1ccccc1	1	0	0.8	3%	x
O=C(OCC(=O)N1CCCc2ccccc21)c1ccc(Br)o1	11	0	-1.5	9%	-22
Cc1ccccc1NC(=S)c1nc2ccccc2[nH]1	4	-1	8.6	u	-18
COc1ccccc1N1CCN(CC(=O)Nc2ccc(C)c(F)c2)CC1	0	13	2.8	3%	-28
Cc1cc(C)n2nc(C(=O)N/N=C/c3ccc(Cl)cc3)nc2n1	2	9	0.4	1%	x
CNC(=O)CSc1nnc(CCc2ccccc2)n1-c1ccccc1	2	-4	-3.6	2%	5
CCC1(CC)Cc2ccccc2-c2[nH]c(=S)[nH]c(=O)c21	-4	x	4.5	x	x
CCn1nc(C)c(NC(=O)CSc2nnc(-c3ccco3)n2C)c1C	13	-7	1.1	-1%	27
O=C(c1ccc(-c2ccc([N+](=O)[O-])cc2Cl)o1)N1CCOCC1	63	7	0.8	1%	x
Cc1cc(NC(=O)CSc2ncnc3c2cnn3-c2cccc(Cl)c2)no1	-8	-2	0.2	-1%	x
COc1ccc(NC(=O)Nc2ccccc2C)c(OC)c1	-7	7	1.4	-1%	-35
Cc1cc(=O)n2nc(N3CCCC(C(=O)NCc4ccc(F)cc4)C3)sc2n1 (centres undefined)	2	x	3.0	x	x
CC(=O)N1N=C(c2ccc(C)o2)CC1c1ccc(Br)cc1 (centres undefined)	-1	-1	4.2	5%	-37
Cc1ccc(-c2c[n+](CC(=O)N3c4ccccc4Sc4ccccc43)c3n2CCC3)cc1	97	-13	0.4	7.9µM*	-11
O=C(O)CCCn1cc(NC(=O)COc2ccccc2F)cn1	8	x	-1.6	x	x
CCOC(=O)c1c(C)[nH]c(C(=O)COC(=O)c2ccc(N3CCCC3=O)cc2)c1C	-2	-5	3.6	-7%	-41
COc1ccc(C(C)=O)cc1CSc1nc2nc(C)cc(C)n2n1	-3	0	1.0	-3%	x
COc1ccc(CCN(C)CC(O)c2ccccc2)cc1OC (centres undefined)	-7	1	-2.1	1%	x
Cn1c(=O)c2c(nc(N/N=C/c3ccc(OC(=O)c4ccco4)cc3)n2Cc2ccccc2Cl)n(C)c1=O	-2	-9	-0.6	7%	-27
CC1=Nc2cc(C(=O)N3CCCC3)ccc2Sc2c(C)ccc(C)c21	5	x	5.5	x	x
COc1c(C)cccc1C(=O)Nc1ccc(OCC(=O)N2CCOCC2)cc1C	-2	x	3.1	x	x
CCOC(=O)Cc1csc(NC(=O)Nc2ccc(C)cc2)n1	-7	x	2.5	3%	x
COc1ccccc1NC(=S)NC(C)=O	4	1	x	5%	x
CCOc1ccc(-n2c(SCC(=O)NCc3ccco3)nc3c([nH]c4ccccc43)c2=O)cc1	10	6	-0.7	-6%	-20	Arbovirus inh repeat=-3
Cc1ccccc1NC(=O)c1c2c(nc3ccccc13)CCC2	-2	6	-2.6	-3%	x
O=C(CNS(=O)(=O)c1ccc(F)cc1)N1CCN(c2ccccc2)CC1	-2	0	5.5	-6%	1
CCOc1ccc(N2CC(C(=O)Nc3cc(C)on3)CC2=O)cc1 (centres undefined)	-8	4	-1.0	4%	-16
CC(=O)Nc1ccc(C(=O)N2CC(=O)NC(=O)C2)cc1	9	x	0.8	-8%	x
COC(=O)c1ccccc1NC(=O)CN1CCC(NC(=O)c2ccc(C)cc2)CC1	-2	55*	-0.5	2%	-27
Cc1csc(NC(=O)CSc2nnc(CCNC(=O)c3cccs3)n2C)n1	7	8	-0.9	0%	8
CCOC(=O)C1(Cc2ccccc2)CCCN(C(=O)c2ccc(-n3ccnc3)cc2)C1 (centres undefined)	-9	x	2.5	x	x
N#Cc1cccc(S(=O)(=O)N2CCN(c3ccnc4cc(Cl)ccc34)CC2)c1	6	x	11	x	x
Cc1noc(C)c1CSc1nnc2scc(-c3ccccc3)n12	-1	9	-2.6	5%	-1
COc1ccc(-c2nc(CS(=O)CC(=O)NC3CCCCC3C)c(C)o2)cc1OC (centres undefined)	-2	x	-1.8	x	x
CC(C)(C)NC(=O)Nc1ccc(F)c(Cl)c1	-1	2	0.7	0%	x
Fc1ccc(/C=N/NC2=Nc3cccc4cccc2c34)cc1	21	0	2.9	4%	-12
NC(=O)c1c(NC(=O)Cn2nc(C(=O)O)c3ccccc3c2=O)sc2c1CCC2	-2	x	-3.3	-2%	x
CN(C)C(CNC(=O)Cc1ccc([N+](=O)[O-])cc1)c1ccccc1 (centres undefined)	10	14	-1.9	-24%	x
CC1CC(C)CN(C(=O)CCC(=O)Nc2nnc(C(C)C)s2)C1 (centres undefined)	-2	x	0.6	x	x
Cn1c(SCC(=O)N2CCCc3ccccc32)nnc1-c1ccccc1	6	5	-2.1	0%	-28
Cc1ccsc1/C=N\NC(=O)CC(=O)NCc1ccccc1	-1	8	-0.2	3%	x
CC(C)(C)c1ccc(C(=O)O)c(C(=O)c2ccccc2)c1	9	9	-3.0	-3%	x
Cc1ccc(S(=O)(=O)N(C)c2ccc(OC(=O)CN3C(=O)NC4(CCCC4)C3=O)cc2)cc1C	-4	x	-4.2	x	x
CC1CCN(C(=O)CSc2nc3[nH]ncc3c(=O)[nH]2)CC1	2	3	0.3	1%	-36
COc1ccc(C(=O)NC2(C(F)(F)F)N=C3SCCN3C2=O)cc1 (centres undefined)	-7	4	-2.5	-4%	-45
CCn1c(C(=O)NC2CCC(C)CC2)cc2sccc21 (centres undefined)	4	x	1.5	x	x
O=C(Nc1cc2c(ccc3ccccc32)oc1=O)C1CCCCC1	5	1	13	-6%	-34
Cc1cc(N)n(C2CCN(C)CC2)n1	-16	5	-0.2	5%	-20
Cc1ccc(COc2coc(CO)cc2=O)cc1	4	0	0.5	1%	-31
CCOC(=O)Nc1ccc2c(c1)N(C(=O)CCCl)c1ccccc1[S@]2=O	4	x	7.7	x	x
Cc1ccc2c(c1)NC(=O)C(CC(=O)Nc1ccc(CN3CCC(C)CC3)cc1)O2 (centres undefined)	u	-1	-1.0	2%	2
COCCN(C(=O)C(F)(F)F)C(C(=O)NC1CCCCC1)c1ccco1 (centres undefined)	-3	2	-0.5	-2%	-56
COc1cc(OC)cc(-c2n[nH]c(=S)n2-c2ccc3c(c2)OCCO3)c1	-2	2	-1.0	2%	x

These rows are one share of the data; count on the stated rates, not on these rows.
